Screening results (PubChem BioAssay)
FPRL1 binder: binds the human formylpeptide receptor-like-1 FPRL1. P25090. FPRL1-expressing cells, fluorescent ligand binding inhibition, flow cytometry. inhibition, %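 (tested at 6.7 µM)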. hit rate 0.3% among 24,000. AID 441;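 also: 0% = buffer alone and 100% = receptor blocker peptide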
Target sequence (P25090 whole entry, looked up): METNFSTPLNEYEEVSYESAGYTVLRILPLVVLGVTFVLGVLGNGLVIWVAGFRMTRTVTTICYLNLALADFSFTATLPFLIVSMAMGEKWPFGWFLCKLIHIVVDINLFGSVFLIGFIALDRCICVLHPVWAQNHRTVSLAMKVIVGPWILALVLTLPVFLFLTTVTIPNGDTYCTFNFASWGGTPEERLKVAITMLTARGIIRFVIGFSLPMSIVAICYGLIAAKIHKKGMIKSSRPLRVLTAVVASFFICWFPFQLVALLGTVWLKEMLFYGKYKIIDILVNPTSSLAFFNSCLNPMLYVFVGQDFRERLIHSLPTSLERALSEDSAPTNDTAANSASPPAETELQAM
FPR binder: ligands of human FPR, also counter-screen for FPRL1 ligands. P21462. FPR-expressing cells, fluorescent ligand binding, flow cytometry. inhibition, %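 (tested at 6.7 µM)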. hit rate 0.74% among 24,000. AID 440;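 also: 0% = buffer wells and 100% = receptor blocker peptide wells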
Target sequence (P21462 whole entry, looked up): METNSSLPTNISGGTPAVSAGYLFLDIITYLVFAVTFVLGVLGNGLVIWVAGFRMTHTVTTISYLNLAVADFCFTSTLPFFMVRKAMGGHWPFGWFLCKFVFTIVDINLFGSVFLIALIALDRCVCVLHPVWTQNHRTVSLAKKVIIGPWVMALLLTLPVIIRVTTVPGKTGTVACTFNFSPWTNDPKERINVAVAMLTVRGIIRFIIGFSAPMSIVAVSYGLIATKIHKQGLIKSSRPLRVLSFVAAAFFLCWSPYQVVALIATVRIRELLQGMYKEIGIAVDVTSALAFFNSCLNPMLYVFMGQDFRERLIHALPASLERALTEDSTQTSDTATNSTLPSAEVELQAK
VCAM-1 down: inhibitors of TNFa-induced VCAM-1 surface display, cell-based, plate reader, pooled HUVEC, TNFa stimulus (AID 454). HUVEC TNFa-induced VCAM-1 surface immunofluorescence, plate reader; numbers were filed only for top-ranked candidate wells. inhibition, % at 5 µM. hit rate 0.2% among 10,000;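 active = compound among top-ranked inhibitors of TNF-induced VCAM-1 adhesion protein staining, with the hit upheld by image or statistical review; inactive = the rest, including hits rejected on review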;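 also: 0% = TNFa with vehicle and 100% = cells without TNFa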
VCAM-1 imaging: inhibitors of TNFa-induced VCAM-1 surface display, imaging, high-content imaging, pooled HUVEC, TNFa stimulus (AID 456); HUVEC TNFa-induced VCAM-1 surface expression, immunofluorescence imaging; numbers were filed only for top-ranked candidate wells; inhibition, % at 5 µM, or IC50 in µM where a hit was titrated; hit rate 0.2% among 10,000;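 active = top tenth filtered wells with inhibition above zero that passed visual or statistical confirmation; inactive = the rest, including hits rejected on review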;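 also: 0% = stimulated vehicle wells and 100% = unstimulated cells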
VCAM-1 up imaging: enhancers of VCAM-1 display on endothelial cells, imaging, high-content imaging, pooled HUVEC, TNFa stimulus (AID 457); calls only; hit rate 0.2% among 10,000; Pooled HUVEC, TNFa-induced VCAM-1 immunofluorescence imaging; hits of this screen are not shown here;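 active = a top-ranked rise in VCAM-1 staining upheld on image or statistical review; inactive = the rest, including candidates rejected on review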;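 also: compounds tested at 5 µM in the well; cells exposed to compound for 24 hours before fixing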
Numbers without * were called inactive; i = inactive; / = no result given.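 The calls were made as follows, unless noted: active = mean above 30%; inconclusive = self-fluorescent; inactive = the rest.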 A portion of the library; count on the stated rates, not on these rows.

SMILES	FPRL1 binder	FPR binder	VCAM-1 down	VCAM-1 imaging	VCAM-1 up imaging
NC(=O)c1c(NC(=O)Cc2cccs2)sc2c1CCC2	-4	1	i	i	i
CCN(CC)CCN1C(=O)C(O)=C(C(=O)c2cccs2)C1c1ccc(C)o1 (stereo unspecified)	0	0	i	i	i
CCN1CCN(CCCNC(=O)c2cn(CCOC)c(=O)c3c2c2ccccc2n3C)CC1	0	0	i	i	i
Cc1ccc(-n2ncc(C(=O)O)c2C2CCN(C(=O)OC(C)(C)C)CC2)cc1	27	14	/	/	/
CC(NC(=O)COc1ccc(Br)cc1)C(=O)O (stereo unspecified)	1	-3	i	i	i
CCc1ccccc1NC(=O)c1nnn(CC(=O)Nc2ccccc2C)c1N	-2	3	/	/	/
Cc1cc2ccccc2n1CCNC(=O)c1ccccc1	2	-5	/	/	/
CC1CN(c2nc3ccccn3c(=O)c2/C=C(\C#N)S(=O)(=O)c2ccccc2)CC(C)O1 (stereo unspecified)	2	-8	i	i	i
CCCCC(CC)C(=O)Nc1ccccc1C#N (stereo unspecified)	-6	5	i	i	i
CC(=O)Nc1ccccc1O	0	2	i	i	i
COc1ccc(CC(NC(C)=O)C(=O)NC2CCN(C(=O)Nc3ccc(C#N)cc3)CC2)cc1OC (stereo unspecified)	18	14	i	i	i
COc1ccc(CNC(=O)c2cnc3n(c2=O)CCS3)cc1	3	9	i	i	i
CN1CCN(C(=O)c2cnn3c(C(F)F)cc(C4CC4)nc23)CC1	3	-2	i	i	i
N#Cc1ccc(COC(=O)Cn2nnc(-c3ccccc3)n2)cc1	-4	0	i	i	i
COc1ccc(Cl)cc1C(=O)n1nc(C)cc1C	6	-5	i	i	i
C=CCNC(=O)c1ccccc1Cl	13	-2	/	/	/
O=C(CC(NS(=O)(=O)c1ccc(Cl)cc1)c1ccco1)NC1CCCC1 (stereo unspecified)	1	6	/	/	/
Cc1nnc(Nc2ccccn2)c2ccccc12	0	2	i	i	i
Cc1ccc(NC(=O)CCC(=O)OCCCC(F)(F)C(F)(F)F)cc1	1	-4	/	/	/
Cc1ccc2c(c1)sc1ncc(NC(=O)c3ccccc3)c(=O)n12	10	7	i	i	i
O=C(CNS(=O)(=O)c1ccc(Br)s1)N1CCCC1	-2	1	i	i	i
CCCSc1nnc(Cn2c(=O)sc3ccccc32)n1C	4	-3	/	/	/
COc1ccc(-c2cc(C#N)nc(N3CCN(c4ccccc4)CC3)n2)cc1	1	-3	/	/	/
Cc1cc2ccccc2c(=O)n1CC(=O)Nc1ccc2c(c1)OCCO2	-2	2	/	/	/
Cc1nc2ccccc2c2oc(C(=O)NCCCN3CCCC3=O)cc12	-1	0	i	i	i
SMILES	FPRL1 binder	FPR binder	VCAM-1 down	VCAM-1 imaging	VCAM-1 up imaging
CCC(C)NC(=O)c1cn(C)c(=O)c2cc(OC)c(OC)cc12 (stereo unspecified)	6	6	/	/	/
CC(C)(C)n1ncc2c(=O)n(CC(=O)Nc3ccc4c(c3)OCCO4)cnc21	-9	-11	/	/	/
Cc1ccc2nsnc2c1N(S(C)(=O)=O)S(C)(=O)=O	18	1	/	/	/
CCC1=C/C(=C\c2ccc3c(c2)OCO3)C(=O)S1	21	26	/	/	/
CC1CCN(C(=O)CSc2nc3ccccc3[nH]2)CC1	-10	-2	i	i	i
CCOC(=O)c1ccc(NCc2ccc(N(C)C)cc2)cc1	6	4	/	/	/
COCCNC(=O)CCCCCNS(=O)(=O)c1ccc(C)cc1	0	-6	/	/	/
CN(CC(CC(=O)Nc1nncs1)c1ccccc1)S(=O)(=O)c1ccccc1 (stereo unspecified)	-1	0	/	/	/
COc1ccccc1NC(=O)C1CCCN(S(=O)(=O)c2cccc3nsnc23)C1 (stereo unspecified)	2	-7	/	/	/
Cc1ccc(-c2c(C)sc(NC(=O)C3C4CCC(O4)C3C(=O)O)c2C(=O)OC(C)C)cc1 (stereo unspecified)	-5	-10	/	/	/
CCC(=O)N1CCc2cc(S(=O)(=O)NC(CC(C)C)C(=O)N3CCc4ccccc43)ccc21 (stereo unspecified)	-6	-1	/	/	/
O=C(COc1ccccc1)Nc1ccc(-c2nnc(-c3ccco3)o2)cc1	2	10	i	i	i
CCOC(=O)c1c(C)n(C)c2ccc(O)c(S(=O)(=O)c3ccccc3)c12	-8	25	i	i	i
Cc1cc(C(=O)CSc2nc3ccccc3n2CCC#N)c(C)n1Cc1cccs1	-6	-7	i	i	i
CN(C(=O)COc1cc(=O)n(C)c2ccccc12)c1ccc(Cl)cc1	8	4	/	/	/
CCn1c(=O)cc(OCC(=O)N(C)C2CCCCC2)c2ccccc21	3	2	/	/	/
CSc1nnc2n(-c3ccc(C)cc3)c(=O)c3c4c(sc3n12)COC(C(C)C)C4 (stereo unspecified)	-2	0	/	/	/
CC(=O)C1=C(O)C(=O)N(Cc2cccnc2)C1c1ccccc1 (stereo unspecified)	-5	-3	i	i	i
CC(C)NC(=O)CCNC(=O)c1ccc(F)cc1	-3	-5	/	/	/
O=c1c2cn[nH]c2[nH]c(=S)n1-c1ccccc1F	-4	-3	/	/	/
COc1ccc(OC)c(-c2cc(C(=O)NCc3ccco3)no2)c1	-1	1	/	/	/
COc1ccc(CNC(=O)Cn2cc3c(n2)CCCCC3)cc1	-4	2	/	/	/
Cc1cc(C)nc(NS(=O)(=O)c2ccc(NC(=O)Cn3c(=O)oc4ccccc43)cc2)n1	-4	-6	i	i	i
Nc1ccc(Nc2ccccc2N)cc1	47*	3	/	/	/
CCOC(=O)N1CCN(C(=O)Cn2c(C)cc3ccccc3c2=O)CC1	5	4	/	/	/
SMILES	FPRL1 binder	FPR binder	VCAM-1 down	VCAM-1 imaging	VCAM-1 up imaging
CCc1ccc(NC(=O)CSc2nnc(Cc3cccn3C)n2-c2ccc(F)cc2)cc1	2	12	/	/	/
CC1CCCCN1C(=O)CSc1nnc(-c2ccc(Cl)s2)o1 (stereo unspecified)	-1	6	/	/	/
Cn1cc(Cl)c(C(=O)N(Cc2ccccc2)c2ccccn2)n1	1	-4	i	i	i
CC1CCCCC1NC(=O)c1ccc(CNc2c(N3CCCC3)c(=O)c2=O)cc1 (stereo unspecified)	-2	-1	/	/	/
CN(c1ccccc1)S(=O)(=O)c1cc(C(=O)N2CCN(c3ccccn3)CC2)ccc1Cl	-6	-14	i	i	i
Cc1nn(Cc2ccc(C(=O)NC3CCCCC3)o2)c(C)c1Br	2	4	i	i	i
CC(=O)Nc1sc2c(c1CN1CCN(c3ccccn3)CC1)CCCC2	0	1	i	i	i
COC(=O)C1=C(C(=O)c2ccc(C)cc2)C(c2ccc(O)c(OC)c2)n2nnnc2N1 (stereo unspecified)	1	4	/	/	/
CCSc1nnc(NC(=O)CSc2nnc(Cc3cccn3C)n2-c2ccc(C)cc2)s1	-5	1	i	i	i
CCOCCc1nnc(NC(=O)c2ccc(OC)c(OC)c2)s1	3	-2	i	i	i
Cc1ccc(CNC(=O)CN(C)S(=O)(=O)c2cccc3cccnc23)cc1	2	-2	/	/	/
CCOCC(=O)Nc1c(C(=O)Nc2ccc(OC)cc2OC)oc2ccccc12	-1	1	i	i	i
Cc1cc(N2CCN(C)CC2)nc2ccc(NC(=O)c3ccc(Br)o3)cc12	5	2	/	/	/
Cn1c(COc2ccccc2)nnc1SCC(=O)Nc1ccc(N2CCOCC2)c(Cl)c1	-3	0	i	i	i
CCOC(=O)N1CCC(NC(=O)CCC(=O)N2CC(C)Oc3ccc(Cl)cc32)CC1 (stereo unspecified)	1	0	i	i	i
COc1cc(OC)cc(-c2nnc(Nc3nc4c(F)cccc4s3)o2)c1	1	3	i	i	i
CCOC(=O)c1[nH]c(C)c(/C(O)=C2\C(=O)C(=O)N(CCN3CCOCC3)C2c2cccs2)c1C (stereo unspecified)	-1	-2	/	/	/
Cc1ccc(NC(=O)c2cc(S(=O)(=O)N3CCC4(CC3)OCCO4)ccc2F)cc1	-10	-3	i	i	i
Cn1c(=O)cc(OCCCC(=O)Nc2cccnc2)c2ccccc21	0	-3	/	/	/
COc1ccc(C(=O)Nc2ccc(Cl)c(Cl)c2)c(OC)n1	-2	6	i	i	i
O=C(NCCCN1CCCC1=O)c1cccnc1	4	-4	i	i	i
Cc1c(C(=O)Nc2ccc(F)cc2)oc2ccc(S(=O)(=O)N3CCC4(CC3)OCCO4)cc12	-5	-8	/	/	/
CCN(CC)S(=O)(=O)c1ccc2c(c1)c(=O)c(C(=O)NCCCN(C)c1ccccc1)cn2C	4	-2	/	/	/
CCCCOC(=O)c1ccc(NC(=O)c2ocnc2C)cc1	-6	-5	/	/	/
COc1cccc(C(=O)N(c2ccc(OC)cc2OC)C2C=CS(=O)(=O)C2)c1 (stereo unspecified)	2	6	/	/	/

Reprinted from above, 3 compounds:
SMILES	FPRL1 binder	FPR binder	VCAM-1 down	VCAM-1 imaging	VCAM-1 up imaging
CCN(CC)S(=O)(=O)c1ccc2c(c1)c(=O)c(C(=O)NCCCN(C)c1ccccc1)cn2C	4	-2	/	/	/
CCCCOC(=O)c1ccc(NC(=O)c2ocnc2C)cc1	-6	-5	/	/	/
COc1cccc(C(=O)N(c2ccc(OC)cc2OC)C2C=CS(=O)(=O)C2)c1 (stereo unspecified)	2	6	/	/	/

(further entries)
SMILES	FPRL1 binder	FPR binder	VCAM-1 down	VCAM-1 imaging	VCAM-1 up imaging
COc1ccccc1CCNC(=O)c1cnn2c(C(F)F)cc(C)nc12	-2	-2	/	/	/
CC(CCc1ccccc1)NC(=O)CN1CCOc2ccccc21 (stereo unspecified)	1	-3	/	/	/
O=C(CCc1nc(-c2ccccc2F)no1)Nc1ccc(Oc2ccccc2)cc1	2	2	/	/	/
CCOC(=O)C1=C(C)Nc2nc(SCc3cccnc3)nn2C1c1ccc(OC)cc1 (stereo unspecified)	-5	1	/	/	/
COc1ccccc1NC(=O)C1CCCCN1S(=O)(=O)c1ccc(F)cc1 (stereo unspecified)	-7	8	/	/	/
Cc1cc(C(=O)Nc2ccccc2C(F)(F)F)no1	3	1	/	/	/
CCSc1ccccc1C(=O)NCc1ccc(S(N)(=O)=O)cc1	-3	-5	i	i	i
COC(=O)Cn1cnc2c(nnn2Cc2ccc(Cl)cc2)c1=O	3	-1	/	/	/
CC(C)C(=O)Nc1ccc(C(=O)NCc2cccnc2)cc1	8	-4	i	i	i
O=C(CSc1nc2ccccc2s1)N1CCN(C(=O)c2ccco2)CC1	-5	-2	i	i	i
Cc1ccc(C(=O)Nc2ccc3c(c2)OCO3)cc1S(=O)(=O)N1CCCC1	-11	-4	i	i	i
CCOC(=O)C1=C(C)Nc2nc(C)nn2C1c1cc(OC)ccc1OC (stereo unspecified)	-1	8	/	/	/
Cc1nc2c3c(-c4ccccc4)nc(N4CCOCC4)nc3nn2c(C)c1CCC(=O)O	2	-6	/	/	/
Cc1cc(NC(=O)CSc2nnc(-c3ccc(Cl)s3)o2)no1	4	-4	/	/	/
CN(C)/C=c1\sc2c(C#N)cc(C(=O)c3ccc(Br)cc3)n2c1=O	-3	-3	i	i	i
COCCNS(=O)(=O)c1cc(F)ccc1OC	-6	-14	i	i	i
CCOc1ccccc1C1C(C(N)=O)=C(C)Nc2nc(-c3ccc(OC)cc3)nn21 (stereo unspecified)	6	10	/	/	/
Cc1ccc(S(=O)(=O)N2CCN(S(C)(=O)=O)C2)cc1	-4	-1	/	/	/
CCn1c(SCC(=O)Nc2nnc(C)s2)nnc1-c1ccncc1	1	-1	i	i	i
CC(C)(C)NC(=O)NC(=O)COc1ccccc1C#N	-2	5	i	i	i
O=C(CSc1nc2ccccc2c(=O)[nH]1)N1CCOCC1	10	-3	/	/	/
CCCCn1c(SCc2ccc(Cl)cc2)nc2c1c(=O)[nH]c(=O)n2C	-2	6	i	i	i
COc1cccc(Oc2cnc(N)nc2-c2ccc(OC)cc2O)c1	0	4	85	84%	i
CCOc1cccc(C2C(C(=O)c3ccc(C)o3)=C(O)C(=O)N2Cc2ccncc2)c1 (stereo unspecified)	-6	14	/	/	/
Nc1ccc(CN2CCN(c3ccc4ccccc4n3)CC2)cc1	3	-3	/	/	/
Cn1c(Cc2ccccc2)nnc1SCC(=O)c1ccc(Br)s1	2	-1	i	i	i
CCOC(=O)C1CCN(C(=O)c2sc3nc(-c4ccc(F)cc4)cn3c2C)CC1	10	1	/	/	/

Full records from above. Values in the order: FPRL1 binder | FPR binder | VCAM-1 down | VCAM-1 imaging | VCAM-1 up imaging
Shown for `COC(=O)C1=C(C(=O)c2ccc(C)cc2)C(c2ccc(O)c(OC)c2)n2nnnc2N1` (stereo unspecified) : 1 | 4 | / | / | /
Shown for `Cc1cc(C(=O)Nc2ccccc2C(F)(F)F)no1` : 3 | 1 | / | / | /
Shown for `CC(=O)Nc1ccccc1O` : 0 | 2 | i | i | i
Shown for `COCCNS(=O)(=O)c1cc(F)ccc1OC` : -6 | -14 | i | i | i
Shown for `Cc1ccc(C(=O)Nc2ccc3c(c2)OCO3)cc1S(=O)(=O)N1CCCC1` : -11 | -4 | i | i | i
